# TRPML1 agonist: qHTS for Agonists of the Human Mucolipin Transient Receptor Potential 1 (TRPML1) | TRPML1-expressing cells, Ca2+ dye fluorescence, FDSS; host cell line not named in the record; reference of the full effect not given here | 410,000 tested, 0.12% active | activation, % (concentration not given with the values); in the data active = activation above about 50%; inconclusive = about 30% to 50%; inactive = below about 30%; further: 0% is about no effect; the text of the record puts the active cut at 80%
#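 TRPML1-DL cells, Tet-induced overnight (~16 h, 37 degrees C), loaded 45-90 min at room temperature with Ca8 no-wash calcium dye plus quencher. FDSS fluorescence: 10 s baseline, compound pin-transfer, 110 s agonist read, then EC80 54-4 (4uM final) and 110 s antagonist read.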
# TRPV1 PAM: HTS Assay for Compounds that Act as Potentiators of the Vanilloid Receptor 1 | AID 540277, 2011 | 320,000 tested, 0.02% active | TRPV1-expressing cells, Fluo-8 calcium influx, capsaicin EC20 potentiation; host cell line not named in the record; control for the full effect not named in the record | Transient receptor potential cation channel subfamily V member 1 (Homo sapiens), Q8NER1 | potentiation, % at 8.33 µM; active means potentiation above 80%; inconclusive means 30% to 80%; inactive means below 30%; further: 0% is about no effect
# Target sequence (Q8NER1 whole entry, looked up): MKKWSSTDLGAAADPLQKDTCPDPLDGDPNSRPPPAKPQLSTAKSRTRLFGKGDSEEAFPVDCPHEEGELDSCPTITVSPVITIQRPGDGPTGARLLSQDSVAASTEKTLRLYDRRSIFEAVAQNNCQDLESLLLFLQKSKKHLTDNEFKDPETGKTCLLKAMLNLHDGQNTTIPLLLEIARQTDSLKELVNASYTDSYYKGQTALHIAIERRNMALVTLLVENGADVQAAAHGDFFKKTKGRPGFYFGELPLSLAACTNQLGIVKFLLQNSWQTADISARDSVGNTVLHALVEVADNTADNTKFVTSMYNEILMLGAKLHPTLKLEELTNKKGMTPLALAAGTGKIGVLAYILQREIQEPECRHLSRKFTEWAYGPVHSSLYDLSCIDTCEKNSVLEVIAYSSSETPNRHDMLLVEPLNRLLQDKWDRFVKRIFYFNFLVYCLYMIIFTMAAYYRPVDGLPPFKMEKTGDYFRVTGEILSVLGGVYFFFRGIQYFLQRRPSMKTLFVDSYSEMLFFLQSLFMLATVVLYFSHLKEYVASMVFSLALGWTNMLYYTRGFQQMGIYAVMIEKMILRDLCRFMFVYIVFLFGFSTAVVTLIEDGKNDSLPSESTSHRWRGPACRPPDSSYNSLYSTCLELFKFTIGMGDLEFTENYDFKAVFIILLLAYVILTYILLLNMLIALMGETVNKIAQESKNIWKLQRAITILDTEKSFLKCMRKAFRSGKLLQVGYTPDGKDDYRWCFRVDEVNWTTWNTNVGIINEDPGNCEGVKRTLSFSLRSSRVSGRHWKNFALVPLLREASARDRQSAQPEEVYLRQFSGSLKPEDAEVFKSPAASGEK
#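 Fluo-8 calcium influx in TRPV1-expressing cells, kinetic read (ex 480/em 520 nm). Compound added and read 3 min for agonist activity, followed by capsaicin at EC20 final and 2 min further read for enhancement.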
# Six1-Eya2 blk: qHTS Assay for Inhibitors of the Six1/Eya2 Interaction; AlphaScreen GST-Six1/His-Eya2 binding, biochemical; stronger effect = lower value; control for the full effect not named in the record; activity change, % (no concentration beside the values); 360,000 tested, 0.56% active; in the data active = activity change below about -65%; inconclusive = about -30% to -65%; inactive = above about -30%; further: on the % scale 0 is the no-effect control and ±100 the full control effect; compound concentration not given in the record
#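 AlphaScreen luminescence read after one hour at 37 °C in darkness. Pin-transferred compounds met GST-Six1 and His-Eya2 protein (5X stock 250 nM/500 nM) plus glutathione donor and Ni-chelate acceptor beads (5X, 50 ug/mL).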
# CtBP-E1A inh: qHTS Assay for Inhibitors of the CtBP/E1A Interaction. activity change, % (concentration not given with the values). AlphaScreen GST-E1A/His-CtBP binding, 1536-well; stronger effect = lower value; control for the full effect not named in the record. CtBP / adenovirus E1A interaction (AlphaScreen). 340,000 tested, 0.49% active; in the data active means activity change below about -65%; inconclusive means about -30% to -65%; inactive means above about -30%; further: on the % scale 0 is the no-effect control and ±100 the full control effect
#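 AlphaScreen with 125 nM GST-E1A and 125 nM His-CtBP (5X stocks) in Tris pH 8.0, 300 mM NaCl, BSA, Tween 20, TCEP. Compounds preincubated 2 h at 37 deg C, then glutathione donor/nickel acceptor beads added for 1 h at 37 deg C in dark.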
# TRPML1 inh: qHTS for Inhibitors of the Human Mucolipin Transient Receptor Potential 1 (TRPML1) | Mucolipin-1 (Homo sapiens), Q9GZU1 | TRPML1-inducible cells, Ca2+ dye fluorescence, FDSS; stronger effect = lower value; inhibition of EC80 agonist-evoked calcium signal | activity change, negative = inhibition, % (concentration not given with the values) | 390,000 tested, 0.02% active; in the data active means activity change below about -50%; inconclusive means about -30% to -50%; inactive means above about -30%;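 further: stimulus is agonist 54-4 at its EC80 concentration; on the % scale 0 is the no-effect control and ±100 the full control effect; compound concentration not given in the record; the text of the record puts the active cut at -80%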
#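 TRPML1-DL cells, Tet-induced overnight (~16 h, 37 °C) at 1,500 cells/well, were loaded with Ca8 no-wash dye plus quencher for 45-90 min at room temperature. Compounds were pinned during FDSS kinetic reading; agonist 54-4 at EC80 (4 uM final) then added.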
# D2 PAM: Beta-Arrestin HTS for Positive Allosteric Modulators of the Human D2 Dopamine Receptor: Potentiators; potentiation, % (no concentration beside the values); DiscoveRx D2 beta-arrestin cells, luminescence, 90 min; 100% = 57 uM dopamine signal; 360,000 tested, 0.23% active; D(2) dopamine receptor (Homo sapiens), P14416; active = potentiation of 50% or more; inconclusive = 30% to 50%; inactive = 30% or less;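 further: compound concentration not given in the record; tested on top of an EC20 dose of dopamine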
#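 D2 cells co-treated with compound plus 50 nM dopamine (EC20) for 90 min at 37 deg C to detect potentiation. Beta-arrestin recruitment was read as enzyme-fragment luminescence after 1 h at ambient temperature. Full response was set by 57 uM dopamine.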
# Starred values were filed as active, the others as inactive; u = inconclusive; x = no result given; & = joins results of further samples.
1: COc1ccccc1C1C(C(N)=O)=C(C)Nc2nc(-c3ccccc3Cl)nn21 (stereo unspecified)
2: O=C(N=C1SC2CS(=O)(=O)CC2N1c1cccc(Cl)c1)C1CCCO1 (stereo unspecified)
3: CC(=O)N1CCc2cc(S(=O)(=O)NCCC(=O)NC3CCCc4ccccc43)ccc21 (stereo unspecified)
4: Cc1cc([N+](=O)[O-])nn1CC(=O)Nc1cccc2nonc12
5: Cc1ccc(S(=O)(=O)N(C)C[C@H]2OCc3cnnn3CCCC(=O)N([C@H](C)CO)C[C@H]2C)cc1
6: Cc1cccc(NC(=O)Nc2cc(C)on2)c1
7: COc1cccc(NC(=S)Nc2cc(C(=O)O)ccc2N2CC3CC(C2)c2cccc(=O)n2C3)c1 (stereo unspecified)
8: Cc1nc2nc[nH]n2c(=O)c1NC(=O)c1c(-c2ccccc2Cl)noc1C
screen / no.,1,2,3,4,5,6,7,8
TRPML1 agonist,0.3,-1.1,0.6,0.1,0.1,-0.5,3.9,0.6
TRPV1 PAM,-7,2,21,11,x,20,10,-16
CtBP-E1A inh,1,8,2,4,0,5,x,-1
TRPML1 inh,14,-15,-4,-10,13,2,24,-13
D2 PAM,-1,-5,-6,-5,-3,3,-31,-7
Six1-Eya2 blk,-9,-1,-3,-7,4,-4,-1,5

9: COc1ccc(CCN2CC(C(=O)NCC3(O)CCCCC3)CCC2=O)cc1 (stereo unspecified)
10: Cc1ccc2nc(-c3cccc(SC4CCCCC4)c3)c(NC3CCCCC3)n2c1
11: CCC(C(=O)OCC(=O)Nc1ccc(OC)cc1OC)c1ccccc1 (stereo unspecified)
12: CC12CCC(c3c(C(=O)O)nn(-c4ccccc4)c31)C2(C)C (stereo unspecified)
13: O=c1c2ccccc2nc2n1CCC2
14: c1cncc(-c2nc3ccccc3[nH]2)c1
15: COC(=O)[C@@H](Cc1c[nH]c2ccccc12)NC(=O)c1cc(=O)[nH]c2ccccc12
16: COc1ccc2nc3ccccc3nc2c1N
17: Cc1ccc2nc(-c3cccc(Br)c3)c(Cc3ccccc3)n2c1
screen / no.,9,10,11,12,13,14,15,16,17
TRPML1 agonist,0.4,0.2&-0.6,1.6,-0.4,-0.4,0.0,1.4,2.1,0.7
TRPV1 PAM,11,x,4,14,-2,-6&-2,8,8,x
CtBP-E1A inh,0,0&4,23,-2,-16,-4,4,u,-7
TRPML1 inh,-12,5,-1,-22,22,3,2,-17,21
D2 PAM,-6,-6,-6,9,-11,4,0,1,-7
Six1-Eya2 blk,12,11&12,-6,4,-26,5,-4,u,-10

# Compounds were not picked by outcome. Share with any hit: about 0.95%.
